# High-throughput results (PubChem)
# Vaccinia Venus – inhibitors of vaccinia virus (Venus reporter); Vaccinia virus Venus reporter expression, fluorescence; Potency, µM (highest dose often 36.5 µM), for inactives: at the top dose activity change, negative = inhibition, hits mostly inhibitors; 0.46% of 330,000 active; AID 720580; active means well fitted inhibition curve with a large enough effect; inconclusive means small, poorly fitted or top-dose-only effect; inactive means no such curve, though single readings can be large or run the other way; tested in A549 cells; note: nearly all actives have a fitted effect of over 30% in size; inactives centre near -10
# Vaccinia mCherry – inhibitors of vaccinia virus infection (mCherry reporter signal) | Vaccinia virus mCherry reporter infection, fluorescence; about a quarter of the inactives have no number | Potency, µM (titrated, usually from 36.5 µM), without a hit: at the highest dose activity change, negative = inhibition, actives largely listed as inhibitors | 0.63% of 310,000 active | AID 720579; active = well fitted inhibition curve with a large enough effect; inconclusive = small, poorly fitted or top-dose-only effect; inactive = no such curve, though single readings can be large or run the other way; tested in A549 cells; note: nearly all actives have a fitted effect of over 35% in size; inactives centre near -10
# * = called active by the depositor; i = inactive; ? = inconclusive; . = no result given; & = joins results of further samples; [ ] = another dose, or the depositor's remark. % is set by controls: 0 for no effect and ±100 for the full control effect; potency is the fitted concentration of half-maximal effect.
SMILES,Vaccinia Venus,Vaccinia mCherry
CCOc1ccc(Nc2ncnc3c2nc2n3CCCC2)cc1,-25.6%,-2.9%
COc1ccc(-c2cn3cccnc3n2)cc1NC(=O)C1CCCC1,-3.2%,-10.7%
CCOC(=O)C1=C(C)NC2=C(C(=O)c3ccccc32)C1c1cccnc1 (stereo unspecified),-10.6%,.
Cc1cccc(C)c1NC(=O)CSc1nnc(-c2ccoc2C)n1CCc1ccccc1,-6.5%,-3.1%
O=C(NCCc1c[nH]c2ccccc12)C1CCN(S(=O)(=O)c2ccc(F)cc2)CC1,-17.6%,-19.2%
CCCNC(=O)C(Sc1ccccc1)c1ccccc1 (stereo unspecified),-11.0%,i
Cc1cccc(C(=O)Nc2ccc(S(=O)(=O)N3CCOCC3)cc2C)c1,13.7%,-5.1%
O=C(NCc1ccc(F)cc1)c1ccc2nc(N3CCCCC3)sc2c1,-7.8%,-2.5%
COc1cc(-n2c(=S)[nH]c3ccc(C)cc3c2=O)c(Cl)cc1Cl,-18.5%,i
O=C(Nc1nc2c(Cl)c(Cl)ccc2s1)C1CC1,-16.7%,-14.6%
Cc1ccc(C(=O)Nc2cccc([N+](=O)[O-])c2)cc1S(=O)(=O)Nc1ccc(NC(=O)c2ccccc2)cc1,-14.4%,-27.7%
Cn1cc(C(=O)c2cccc(Cl)c2)cc1/C=N\O,-14.7%,i

# Reprinted at random: five entries already listed, in no set order.
SMILES,Vaccinia Venus,Vaccinia mCherry
Cn1cc(C(=O)c2cccc(Cl)c2)cc1/C=N\O,-14.7%,i
Cc1cccc(C(=O)Nc2ccc(S(=O)(=O)N3CCOCC3)cc2C)c1,13.7%,-5.1%
Cc1cccc(C)c1NC(=O)CSc1nnc(-c2ccoc2C)n1CCc1ccccc1,-6.5%,-3.1%
CCOC(=O)C1=C(C)NC2=C(C(=O)c3ccccc32)C1c1cccnc1 (stereo unspecified),-10.6%,.
O=C(NCCc1c[nH]c2ccccc12)C1CCN(S(=O)(=O)c2ccc(F)cc2)CC1,-17.6%,-19.2%

# Additional compounds follow.
SMILES,Vaccinia Venus,Vaccinia mCherry
Cc1ccc(NC(=O)Cn2cc(C(=O)C3CC3)c3ccccc32)cc1,-5.5%,-7.8%
O=C(Nc1ccc(F)cc1)N1CCc2ccccc2C1,-10.0%,-9.4%
CCN(CCCNC(=O)c1[nH]c(C)c(C(C)=O)c1C)c1cccc(C)c1,-14.7%,-21.8%
CCCCNC(=O)C[C@@H]1C[C@@]2(C(=O)OCC)CCCC=C2N(Cc2ccc3c(c2)OCO3)C1=O,4.2%,i
Fc1ccccc1NC(=S)Nc1ccc(Br)cc1,-25.2%,i
CC(C)(C)OC(=O)NCCCC[C@H](NC(=O)c1[nH]cnc1C(=O)Nc1ccccc1)C(=O)OC(C)(C)C,?,-21.5%
CSCC(=O)N1CCCC(CNC(=O)c2ccccc2Cl)C1 (stereo unspecified),-8.7%,-13.9%
Cc1cccc(C)c1-n1nnnc1C1(C)CCC(=O)N1Cc1ccc(F)cc1 (stereo unspecified),-11.2%,-2.7%
O=C(OCc1ccc(Br)cc1)c1cccc(-c2nnc(-c3ccccc3)o2)c1,-1.5%,-15.7%
CCN(CC)CCNCC(=O)Nc1ccc(Cl)cc1C(=O)c1ccccc1,-12.8%,-15.9%
Cc1cc(C)nc(SCc2cn3c(C)cc(C)nc3n2)n1,5.9%[7.34 µM],i[7.34 µM]
COc1cc(C(O)c2nc(-c3cccc(F)c3)cs2)ccc1F (stereo unspecified),-25.3%,-12.3%
O=C(c1cccs1)N1C2CCC1CC(O)(c1cccnc1)C2 (stereo unspecified),-5.3%,i
Cc1ccc(C(=O)COc2ccc3c(C)cc(=O)oc3c2)cc1,-12.5%,?
O=C(Nc1nc2ccsc2c(=O)s1)C1CCC1,-9.1%,-13.9%
Cc1cccc(NC(=O)C(=O)NCC2CCCO2)c1 (stereo unspecified),-17.6%,-4.9%
CCCS(=O)(=O)NC(=O)C1(C)CCCN(C(=O)c2ccc(OC)cc2)C1 (stereo unspecified),0.5%,16.3%
O=C(O)c1c[nH]c2nccnc12,-3.3%,-15.7%
O=C(CSc1ccc(Cl)cc1)Nc1cccc(NC(=O)c2ccco2)c1,-14.2%,-13.5%
O=C1NC[C@H](CCCCN2C[C@H](Cc3ccccc3)N(CCC3CCCCC3)C(=O)C2=O)N(CCC2CCCCC2)C1=O,?,?
COCc1nnc(NC(=O)c2cc(OC)c(OC)cc2[N+](=O)[O-])s1,-9.4%,-6.1%
NC(=O)Nc1ccc(C(=O)OCC(=O)Nc2ccc([N+](=O)[O-])cc2C(F)(F)F)cc1,-20.2%,-24.2%
CCCc1nnc(SCC(=O)O)n1CC,-12.1%,-7.0%
O=c1cc(-c2ccccc2)nc2c(Cl)cc(Cl)cn12,-16.0%,-1.7%
CCCN(CC(=O)Nc1ccccc1C)C(=O)Cc1c[nH]c2ccccc12,-17.2%,-5.4%
CCCCN1C(=O)/C(=C/C=C2\SCCN2C)SC1=S,33.5%[activator],2.4%
CCC(Oc1ccccc1)C(=O)Nc1nnc(S(=O)(=O)N(CC)CC)s1 (stereo unspecified),-1.7%,-4.4%
Cc1ccc(C2(C)NC(=O)N(CC(=O)N3CCN(S(=O)(=O)c4cccc(F)c4)CC3)C2=O)cc1 (stereo unspecified),-15.0%,-13.4%
O=C(/C=C/[C@H]1O[C@@H](n2cnc3c(NC(=O)c4ccccc4)ncnc32)[C@H](O)[C@@H]1O)NCC(c1ccccc1)c1ccccc1,11.2%,27.0%
COc1ccccc1OCCn1c(SCC(N)=O)nc2ccccc21,-6.5%,-17.2%
Cc1ccc(C(=O)c2ccccc2C(=O)OCC(=O)NCCc2ccc(Cl)cc2Cl)cc1,-17.2%,-26.0%
CCCNC(=O)NC(=O)CSc1nc2ccccc2c(=O)n1Cc1ccncc1,-17.2%,-12.8%
COc1ccc(-c2c(-c3ccccc3OC)oc3ccccc23)cc1F,1.7%,-2.2%
CCOC(=O)c1cnc2nc[nH]n2c1=O,-5.6%,-12.2%
Fc1ccccc1CSc1ncnc2c1ncn2C1CCCCO1 (stereo unspecified),-3.3%,-2.6%
COC(=O)Cn1ncc(N(C)Cc2ccccc2)c(Cl)c1=O,11.4%,0.0%
COCCCn1c(C)csc1=Nc1cccnc1,-16.2%,-14.7%
CC(C)(C)c1csc(NC(=O)CS(=O)(=O)c2ccccc2)n1,0.0%,-9.7%
CS/C(=N\S(=O)(=O)c1ccc(F)cc1)c1ccccc1,-25.3%,-5.9%
Nc1nc(Nc2ccccc2F)nc(N2CCOCC2)c1[N+](=O)[O-],-14.1%,-18.0%
O=C(NC1CCCC1)C(c1ccncc1)N(C(=O)c1csnn1)c1ccc(F)cc1 (stereo unspecified),-4.5%,3.0%
Cc1ccc(C)c(OCCC(=O)NCCc2ccc(F)cc2)c1,-7.3%,-18.1%
O=C(Nn1cnnc1)c1ccc([N+](=O)[O-])cc1,-1.3%,-2.3%
CCN1CCN(CC(=O)Nc2cc(S(=O)(=O)N(CC)c3ccccc3)ccc2Cl)CC1,?,?
CC(C)(C)c1ccc(OCC(=O)O/N=C(\N)c2ccncc2)cc1,-21.8%,i
O=C(CN1CCN(C(c2ccccc2)c2ccccc2)CC1)NCc1ccccc1,-15.0%,-3.7%
CN(C)Cc1c[nH]c2ccccc12,0.9%&-9.6%,3.3%
O=C(CSc1nnc(-c2ccco2)o1)N1CCOCC1,-2.6%,-18.5%
Cn1c(N)c(C(=O)COC(=O)/C=C/c2ccc(Cl)cc2Cl)c(=O)n(C)c1=O,-13.0%,i
O=C1CCCc2c1[nH]c1ccc(Cl)cc21,-17.6%,-20.6%
Cc1cc(N2C(=O)C(=O)/C(=C(/O)c3ccccc3)C2c2cccs2)no1 (stereo unspecified),-12.2%,-20.6%
Cc1cccc(OCCCN2CCOCC2)c1,-5.0%,-7.0%
Cc1ccc2c(c1)-c1c(cnn1CC(=O)N1CCCN(Cc3ccccc3F)C1)CO2,-25.3%,-1.7%
Clc1ccccc1CSc1nncn2c1cc1occc12,-16.3%,-14.8%
CC1(C)CC(=O)N(CC(=O)NC2CCCC2)c2ccccc2S1(=O)=O,-2.5%,-3.4%
Cc1ccc(CN=c2c([N+](=O)[O-])nn(-c3ccc4c(c3)OCCO4)n2O)cc1,0.0%,-24.3%
Cc1ccc2nc(N(Cc3cccnc3)C(=O)COc3ccccc3)sc2c1,-13.8%,i
CCOc1ccc(C(=S)NC2CCCCC2)cc1OC,-14.1%,-13.7%
COc1ccc(COC(=O)CN2C(=O)NC3(CC(C)CC(C)(C)C3)C2=O)cc1F (stereo unspecified),-11.9%,-5.0%
O=C(O)CCc1ccc(-c2ccc(Br)cc2)n1-c1ccccc1O,5.3%,-0.6%
# Carrying on.
SMILES,Vaccinia Venus,Vaccinia mCherry
C/C(=N\NC(=O)c1ccc(CSc2nncn2C)cc1)c1ccc(Cl)cc1,-13.7%,i
COc1ccc(CCN(C)CC(=O)Nc2cc(C)nc3ccccc23)cc1OC,-3.9%,-10.5%
CC(C)c1ccc(S(=O)(=O)c2cc3cc(Br)ccc3oc2=O)cc1,-1.1%,-7.9%
COC(=O)c1cccc(NC(=O)NC23CC4CC(CC(C4)C2)C3)c1,-33.0%,-10.6%
CCCCC(=O)Nc1cc(-c2nc3ccccc3o2)ccc1OC,-21.1%,-9.4%
CSc1ccccc1C(=O)OCC(=O)N1CCCCCC1,-3.2%,-3.4%
C=CCN1C(=O)CN=C1Nc1ccc(OC)cc1OC,-15.9%,-17.6%
CCCNC(=O)c1c(O)c2c([nH]c1=O)CCCC2,-9.1%,-6.0%
COc1ccc(CNC(=O)c2ccc3c(c2)CCN3S(=O)(=O)c2ccccc2)cc1,-19.4%,-24.6%
COc1ccc(-c2cnc3c(NC(C)=O)cc(-c4ccc(S(C)(=O)=O)cc4)cn23)cc1OC,?,?
CCC(C(=O)NCCc1ccccc1)n1nc(C)n2c(cc3sccc32)c1=O (stereo unspecified),-11.5%,-5.8%
S=C(NCc1ccco1)N/N=C/c1ccccc1Cl,-17.5%,-2.3%
O=c1[nH]c(O)c(C=Nc2cccc(F)c2)c(=O)[nH]1,-10.4%,-3.0%
CCc1cccc2c(-c3ccccc3)nc(SCC(=O)Nc3ccccc3)nc12,-0.1%,3.0%
Cc1nc2c(=O)oc3ccccc3c2n1-c1ccccc1,-19.3%,i
CCCCC1(C)Nc2ccccc2-c2nc3ccccc3n21 (stereo unspecified),-16.1%,?
Cc1cc(C(=O)CSc2nc(N)cc(=O)[nH]2)c(C)n1-c1ccc(OC(F)F)cc1,?,?
CCOC(=O)c1c(C)[nH]c(CCC(=O)NCc2ccc(CC)cc2)c1C,-14.4%,-8.2%
O=C1NC(=Nc2cccc(O)c2)S/C1=C\c1cccc([N+](=O)[O-])c1,-20.9%,-0.1%
CC(=O)Nc1ccc(S(=O)(=O)N(C)CC(=O)Nc2cccc(S(=O)(=O)N3CCCC3)c2)cc1,5.7%,i
CCOc1ccc(CNC(=O)c2ccc(Sc3ccc(C)cc3)c(NC(C)=O)c2)cc1OC,-22.3%,i
COc1ccc(Nc2cc(Nc3cc(OC)c(OC)c(OC)c3)ncn2)cc1,-10.5%,-26.0%
CCCn1cc(SCC(=O)NCc2ccc3c(c2)OCO3)c2ccccc21,-11.2%,i
COC(=O)CCCC1=CC2=C(c3ccccc3)C(=O)C(C)(OC(=O)C3CCCC3)C(=O)C2=CN1c1ccc(OC)cc1 (stereo unspecified),-9.6%,?
CS(=O)(=O)Nc1cccc(NC(=O)c2cccc3c(-c4cccnc4)coc23)c1,-2.0%,14.2%
NC(=O)c1ncn([C@@H]2O[C@H](CNCc3ccc(OCC(=O)Nc4ccccn4)cc3)[C@@H](O)[C@H]2O)n1,-6.6%,i
O=C(N/N=C/c1cccc(Cl)c1)C(c1ccncc1)N1CCOCC1 (stereo unspecified),4.0%[7.34 µM],i[7.34 µM]
COc1ccc(OC)c(C(=O)NC(CC(N)=O)c2ccc(N3CCCCCC3)c([N+](=O)[O-])c2)c1 (stereo unspecified),-2.6%,i
Cc1cc2nc(CO)[nH]c2cc1C,-5.0%,i
COc1ccc(-n2c(=O)c3ccccc3n(CC(=O)NCc3ccco3)c2=O)cc1,-7.9%,-15.9%
O=C(c1ccc2c(c1)CCN2S(=O)(=O)c1ccccc1)N1CCN(c2cccc(Cl)c2)CC1,-9.8%,-9.0%
Cc1cc(C)n2nc(C(=O)OCC(=O)N3C(C)CCCC3C)nc2n1 (stereo unspecified),-8.5%,-11.2%
O=C(NCc1ccc(Cl)cc1)c1ccc2ccccc2n1,5.1%,?
CN(C)/N=C/c1cc(Cl)cc([N+](=O)[O-])c1O,-9.9%,-14.1%
COc1ccccc1NS(=O)(=O)c1cc(NC(=O)C2CCCO2)ccc1C (stereo unspecified),-13.1%,-24.1%
CCOc1ccc(C(=O)c2cn(Cc3ccccc3OC)c3ccc(F)cc3c2=O)cc1,-14.9%,-14.6%
COc1ccc(CN(C(=O)Cc2cccs2)C(C(=O)NC2CCCC2)c2ccncc2)cc1 (stereo unspecified),-6.9%,-18.0%
c1ccc(-c2nc(N3CCOCC3)c3ccccc3n2)nc1,?,?
CCCCCCCCCCOCCC(=O)O,-19.4%[3.33 µM],-1.5%[3.33 µM]
Cc1ccccc1CNC(=O)CN1C(=O)CCCc2ccccc21,-11.0%,-15.0%
Cc1ccc(C)c(N2CCN(C(=O)Cn3ncc4ccsc4c3=O)CC2)c1,-16.2%,-24.0%
CCOP(=O)(OCC)C(Nc1ccccn1)c1ccccc1 (stereo unspecified),-7.3%,i

# Sorted by heavy-atom count (smallest number first): some entries from above.
SMILES,Vaccinia Venus,Vaccinia mCherry
Cc1cccc(OCCCN2CCOCC2)c1,-5.0%,-7.0%
O=c1[nH]c(O)c(C=Nc2cccc(F)c2)c(=O)[nH]1,-10.4%,-3.0%
Cn1c(N)c(C(=O)COC(=O)/C=C/c2ccc(Cl)cc2Cl)c(=O)n(C)c1=O,-13.0%,i
